Assay outcomes from PubChem BioAssay.
KCNQ2 enhance: potentiators of rat KCNQ2 potassium channel. O88943. CHO-K1 KCNQ2, FluxOR thallium flux fluorescence; stronger effect = higher value. B-score at 10 µM. actives 0.54% (n = 310,000);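 active = fluorescence ratio B-score at least 3 SD of library B-scores, with initial fluorescence B-score within 3 SD, cut at about 5.3 in these data; same plate scores as AID 2156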;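 note: B-score of peak minus minimum over baseline fluorescence ratio after K+ and Tl+ stimulus; positive B-score means potentiation of KCNQ2 with more thallium influx and brighter signal; only the inactives scoring about 0 or higher are listed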
Target sequence (O88943 whole entry, looked up): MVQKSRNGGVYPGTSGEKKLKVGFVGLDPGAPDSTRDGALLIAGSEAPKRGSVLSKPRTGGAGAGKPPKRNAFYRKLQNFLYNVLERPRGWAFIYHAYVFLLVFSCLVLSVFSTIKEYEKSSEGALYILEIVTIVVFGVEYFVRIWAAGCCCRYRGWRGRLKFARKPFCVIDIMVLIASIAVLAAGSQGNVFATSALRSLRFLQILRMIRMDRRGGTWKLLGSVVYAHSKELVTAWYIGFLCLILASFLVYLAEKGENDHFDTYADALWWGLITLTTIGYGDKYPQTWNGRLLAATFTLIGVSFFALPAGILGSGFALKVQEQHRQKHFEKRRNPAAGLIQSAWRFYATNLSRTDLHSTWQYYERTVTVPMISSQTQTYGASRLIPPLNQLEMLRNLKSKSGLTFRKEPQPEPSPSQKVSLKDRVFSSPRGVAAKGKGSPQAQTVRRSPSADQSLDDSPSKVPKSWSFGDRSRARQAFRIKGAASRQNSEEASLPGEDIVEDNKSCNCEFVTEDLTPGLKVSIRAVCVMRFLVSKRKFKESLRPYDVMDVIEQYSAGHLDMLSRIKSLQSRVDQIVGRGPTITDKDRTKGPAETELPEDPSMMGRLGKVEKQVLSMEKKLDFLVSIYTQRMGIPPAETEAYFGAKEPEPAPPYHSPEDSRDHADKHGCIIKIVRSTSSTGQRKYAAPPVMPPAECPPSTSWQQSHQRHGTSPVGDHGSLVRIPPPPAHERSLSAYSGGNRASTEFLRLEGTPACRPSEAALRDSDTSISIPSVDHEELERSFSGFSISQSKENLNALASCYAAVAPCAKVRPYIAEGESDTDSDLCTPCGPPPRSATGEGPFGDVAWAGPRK
KCNQ2 enhance baseline: second read-out of KCNQ2 enhance, no call of its own (marks repeat the call); B-score; compound at 10 µM; measured here: initial fluorescence intensity artifact check;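 brightness before thallium and not channel activity; 0 = typical well and far values either way flag optical interference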
* = called active by the depositor; x = no result given. Not all compounds are listed, so the mix of outcomes need not match the whole.

SMILES	KCNQ2 enhance	KCNQ2 enhance baseline
C#CCOCCOCCOCCNc1nc(N2CCN(C(=O)Cn3cc(CCCCN)nn3)CC2)nc(N2CCN(C(=O)[C@H](C)n3cc(CCCN=C(N)N)nn3)CC2)n1	0.67	0.01
COc1ccc(C2=NS(=O)(=O)N(C)C(C(=O)NC3CCCCC3)=C2)cc1OC	0.94	2.5
O=c1[nH]c(C2CCN(S(=O)(=O)c3ccc(F)cc3)CC2)nc2c1nnn2Cc1ccc2c(c1)OCCO2	0.11	-0.54
Nc1nnnn1/N=C/c1cc([N+](=O)[O-])ccc1O	2.7	-1.5
CCC(=O)Nc1ccc2c(c1)ncn2-c1ccc(C)cc1	1.9	-0.52
CC(=O)c1cn(CC(=O)NCc2ccc3c(c2)OCO3)c2ccccc12	0.08	-0.19
O=C(Cc1cccs1)NCc1cccc(Cl)c1	0.41	-0.87
Cc1ccc(C)c(OCC(=O)Nc2ccc(S(=O)(=O)N3CCN(C)CC3)cc2)c1	0.19	-0.1
c1ccc(Cc2ccc(OCCn3cncn3)cc2)cc1	1.3	1.1
O=C(CCC(=O)Nc1ccc(F)cc1)N/N=C/c1ccncc1	0.67	-2.2
CCC(C)(C)NC(=O)/C=C/c1ccc(OC)c(S(=O)(=O)N2CCOCC2)c1	0.28	-0.92
O=C(CSc1ncccn1)Nc1cccc2ccccc12	0.18	1.5
CCOCCOC(=O)c1ccc(NC(=O)c2cc(OC)c(OC)c(OC)c2Br)cc1	0.36	-0.68
COC(=O)Nc1ccc(S(=O)(=O)N(C)CC(F)(F)C(F)F)cc1	2.5	-1.3
CC(C)c1ccc(C(O)c2cnc(C(C)C)n2C)cc1 (stereo unspecified)	0.34	0.94
CCCCCCCCCCS(=O)(=O)N/N=C/c1ccc(O)cc1	0.87	-0.69
Cc1cccc(NC(=O)C2C3CCCCC32)c1 (stereo unspecified)	1.8	0.87
Cc1ccc(-c2nn(-c3ccccc3)cc2/C=C/C(=O)OCC(=O)NC2CC2)o1	1.4	0.97
Cc1cccc(NS(=O)(=O)c2ccc(C(=O)NCC(C)(C)N3CCOCC3)cc2)c1C	0.09	-0.15
Cc1cc2cc(CCNC(=O)c3c(-c4ccccc4Cl)noc3C)c(=O)[nH]c2cc1C	0.52	1.2
COc1cccc(NC(=O)CN(C)C(=O)Cn2c(=O)oc3ccccc32)c1	0.06	-0.2
O=C(Nc1ccc(Cl)cc1)N1CCOCC1	1.7	-1.7
COc1ccc(C(=O)NCc2ccc3c(c2)OCO3)cc1	0.77	2.4
O=C(NCCOc1ccccc1)c1cncc(Br)c1	0.06	0
Cc1ccc(/C=C2\C(=N)N3N=C(CC(=O)N4CCCCC4)SC3=NC2=O)cc1	0.54	0.96
O=C1C2C3C=CC(CC3)C2C(=O)N1/N=C/c1ccco1 (stereo unspecified)	1.8	1.9
CC(C)Sc1nnc(Nc2ccccc2)s1	1.8	-0.2
CCCCCC(=O)Nc1ccc(C(=O)COC(=O)CN2C(=O)NC3(CCCC3)C2=O)cc1	0.52	0.43
COc1cc(/C=N\NC(=O)c2ccc(Cl)cc2)ccc1Oc1ccc([N+](=O)[O-])cn1	1	0.16
COc1ccc(CNCc2ccc(OC)c3ccccc23)cc1	1.8	-0.08
CN(CCOc1ccc(Cl)cc1)C(=O)c1ccc(S(=O)(=O)N2CCOCC2)cc1	0.75	-0.09
Cc1ccccc1C(=O)NNC(=O)C(=O)Nc1cccc(Cl)c1C	14*	1.3*
CCN(CCNC(=O)C1CCN(c2nnc(-n3cccc3)s2)CC1)c1ccccc1	1.1	0.08
CCOC(=O)c1cnc2c(OC)cccc2c1N1CC(C)CC(C)C1 (stereo unspecified)	1.2	0.37
CCOc1ccc(OCCOC(=O)C2CCN(S(=O)(=O)c3ccc(C)c(C)c3)CC2)cc1	0.99	0.62
C=CCOc1ccc(/C=C\c2nc(O)c([N+](=O)[O-])c(=O)[nH]2)cc1OCC	2	-1.5
Cc1ccc(NC(=O)NC(=O)CSc2n[nH]c(N)n2)c(C)c1	0.72	-0.39
CC(C)C(C(=O)O)N1CCS(=O)(=O)CC1 (stereo unspecified)	0.42	-0.01
CN(C)c1ccc2c(=O)[nH][nH]c(=O)c2c1	0.65	0.26
COCC(C)NS(=O)(=O)c1ccc(NC(=O)C(Cc2ccccc2)NC(N)=O)cc1 (stereo unspecified)	0.41	-0.2
CC1(O)C(=O)C=C2C=C(c3ccc(C#N)cc3)OC=C2C1=O (stereo unspecified)	3.6	-0.48
Cc1cccn2c(=O)nc(SCC(=O)NCc3ccc4c(c3)OCO4)nc12	1.7	0.6
COc1cccc(OC)c1OC(=O)c1cnccn1	1.2	-0.91
CCOCc1nnc(NC(C)=O)s1	0.49	-1.8
O=C(NNC(=O)c1cccnc1SCc1cccc([N+](=O)[O-])c1)c1cccnc1	0.63	-0.6
Nc1c(Cl)cc(C2=NCCn3c2c2ccc([N+](=O)[O-])cc2[n+]3[O-])cc1Cl	1.5	0.55
COC(CNC(=O)c1ccc2nc3ccccc3c(=O)n2c1)OC	2	-2.4
O=C(NC1CCCCC1)N1CCC(n2c(=O)[nH]c3ccccc32)CC1	1.2	-0.06
O=C(CCCCCCC(=O)NCc1ccccc1)NCc1ccccc1	0.55	0.91
CCc1cc2cc3c(cc2nc1SCC(=O)Nc1cc(OC)c(OC)cc1C(=O)O)OCO3	0.57	0.64

Sorted by formula weight (rising): 3 of the compounds above
SMILES	KCNQ2 enhance	KCNQ2 enhance baseline
Cc1cccc(NC(=O)C2C3CCCCC32)c1 (stereo unspecified)	1.8	0.87
COc1ccc(CNCc2ccc(OC)c3ccccc23)cc1	1.8	-0.08
Cc1ccc(NC(=O)NC(=O)CSc2n[nH]c(N)n2)c(C)c1	0.72	-0.39

Carrying on:
SMILES	KCNQ2 enhance	KCNQ2 enhance baseline
COc1ccc(-c2sc3ccccc3c2C#CC2(O)CCCCC2)cc1	0.52	-2.2
C[C@H]1[C@H](C)CC[C@]2(C(=O)O)CC[C@]3(C)C(=CC[C@@H]4[C@@]5(C)C[C@@H](O)[C@H](O)C(C)(C)[C@@H]5CC[C@]43C)[C@H]12	0.58	-0.31
CCOC(=O)CCCCC(=O)c1[nH]c(=O)[nH]c1CN1CCOCC1	0.02	-0.99
CC(C)(C)c1ccc(C(=O)NCC(=O)OCC(=O)Nc2ccc3c(c2)OCCO3)cc1	3.1	0.02
Cc1ccc(C)n1-c1cc([N+](=O)[O-])ccc1-n1ccnc1	0.01	0.35
CC(/C=N/NC(=O)c1ccco1)=C\c1ccccc1	0.66	0.86
Cc1cc(NC(=O)CSc2nnc(Cn3c(=O)sc4ccccc43)n2-c2ccccc2C)no1	0.08	-1.7
Cc1ccoc1C(=O)NCCNc1ccc(Cl)cc1[N+](=O)[O-]	0.62	1.7
O=C(O)C1CCCCC1C(=O)Nc1ccc(F)c(F)c1 (stereo unspecified)	0.49	-1.6
Cc1cc(C)cc(-n2ccnc2SCC(=O)Nc2ccc3c(c2)OCCO3)c1	0.55	2
O=C(NCCCN1CCOCC1)c1cc(-c2ccc(F)cc2)on1	0.76	0.04
CSc1nccc(NC(=O)c2cccc(Br)c2)n1	3.5	-2.5
Cc1cccc2c(=O)c(C(=O)NCCc3ccccc3)c[nH]c12	0.43	-0.92
COc1ccc(CCNC(=O)C2=CCN(S(=O)(=O)c3ccc(F)cc3)CC2)cc1OC	0.2	-0.45
COc1ccc(Cl)cc1S(=O)(=O)N(C)CC(=O)N1CCCC1	1.1	-0.3
CCN(CC)CP(=O)(c1ccccc1)c1ccccc1	1	-1.3
Cn1c(SC/C=C/c2ccccc2)nnc1-c1ccco1	1.5	2.3
O=S(=O)(Nc1cccnc1)c1cccc(C(F)(F)F)c1	0.71	1.2
O=C(NCC1CC1)c1ccc2c3n(nc2c1)-c1ccccc1CO3	1.6	-2.1
CC(CC(=O)N(C)C1CCCCC1)S(=O)(=O)c1ccc2c(c1)NC(=O)CO2 (stereo unspecified)	1.3	-0.33
CCOC(=O)c1c(NC(=O)/C=C/c2ccco2)sc(C)c1C	0.45	1.1
CCOc1ccc(OCCC(=O)OCC(=O)NCc2ccccc2)cc1	0.65	-1.8
Cc1cc(C)n(C(=O)Cn2nc(C)c(Cl)c2C)n1	0.28	0.53
COc1ccccc1NC(=O)C1CCCN(S(=O)(=O)c2cnc[nH]2)C1 (stereo unspecified)	0.97	0.96
CCCCn1c(SCC(=O)OC)nc2c1c(=O)n(C)c(=O)n2C	0.64	0.75
OCCNc1nc(NCc2ccccc2)c2ccccc2n1	1.1	1.5
C[C@]12CCC(=O)C=C1CC[C@@H]1[C@@H]2[C@@H](O)C[C@@]2(C)[C@H]1CC[C@]2(O)C(=O)COC(=O)CCC(=O)O	0.58	x
CCNC(=S)N1C2CCC1CC(NC(=O)NC1CCCCC1)C2 (stereo unspecified)	2.5	-1.7
Cc1noc(C)c1CSc1ncnc2sc3c(c12)CCC(C)C3 (stereo unspecified)	0.26	1.2
O=C(O)C(Cc1ccccc1)NS(=O)(=O)c1ccc2c(c1)OCCO2 (stereo unspecified)	0.52	-0.91
CC(=O)Nc1ccc(S(=O)(=O)NNC(=O)COc2cc(C)ccc2C(C)C)cc1	0.93	-0.1
CCC(CC)NC(=O)CSc1nnc(-c2ccc(OC)cc2)n1C(C)C	2.4	0.5
O=C1c2cccc(Sc3ccccc3)c2C(=O)c2c(Sc3ccccc3)cccc21	2	0.5
CCOC(=O)c1ccc2nc(C)c(C)nc2c1	0.8	-0.01
O=C(NCC(=O)N1CCCC(C(F)(F)F)C1)c1ccccc1Br (stereo unspecified)	0.81	1
OCc1cn(-c2ccccc2)nn1	0.76	0.2
CC(=O)Nc1ccc(C(=O)CSc2cc(C)c3cccc(C)c3n2)cc1	1.8	-0.88
Cc1sc2ncnc(OCC(=O)NC3CCS(=O)(=O)C3)c2c1C (stereo unspecified)	0.03	1.2
CC(=O)Nc1ccc(C(=O)NNC(=O)c2cc([N+](=O)[O-])cc([N+](=O)[O-])c2)cc1	0.5	1.8
O=c1[nH]cc(O)c(=O)[nH]1	0.54	0.96
O=C1CC(c2ccc(O)cc2)Oc2cc(O)ccc21 (stereo unspecified)	0.38	-0.18
CCOc1ccc(NC(=O)Cn2nnc(C(=O)NCc3ccco3)c2N)cc1	1.8	-0.07
COc1ccc(OCc2nnc(SCC(=O)NC3CCCCC3)o2)cc1	0.28	0.37
O=C(COC(=O)C12CC3CC(CC(C3)C1)C2)Nc1ccc([N+](=O)[O-])cc1Cl	0.48	-0.48
CCOc1cccc(/C=N/NC(=O)C2CCCC2)c1O	2	0.72
O=C(O)Cc1ccc(-c2ccccc2-c2ccccc2)cc1	0.94	-1.5
COc1cccc(CNS(=O)(=O)c2ccc(-n3cnnn3)c(C)c2)c1	0.9	-2
CC(=O)c1sc(NC(=O)C(C)C)nc1C	2.1	-3.3
Cc1ccc(NC2OC(CO)C(O)C(O)C2O)cc1 (stereo unspecified)	0.88	-0.38
COc1ccc(CCNC(=O)CCN2C(=O)COc3ccc(C)cc32)cc1OC	0.86	-0.86

Carrying on:
SMILES	KCNQ2 enhance	KCNQ2 enhance baseline
CCN1CCN(CCc2nc3cc([N+](=O)[O-])ccc3n2C)CC1	0.57	-1.4
CC(C)OCCCNC(=O)CCC(=O)NNc1nc2ccccc2c2nc(-c3ccccc3)nn12	1.6	-0.84
O=C(Nc1ncccc1Cl)c1ccccc1F	1.8	1.3
Cc1onc(-c2ccccc2)c1C(=O)Nc1nnc(N(C)Cc2ccccc2)s1	0.01	1.2
Cc1nc2ccccc2c2oc(C(=O)NCCCN3CCC(C)CC3)cc12	0.3	0.79
Cc1ccc(Oc2ccc(-c3nc(N)nc(N)n3)cc2)cc1C	0.37	-0.02
COc1cc(CCC(=O)N2CCN(c3ccc(N4CCOCC4)nn3)CC2)cc(OC)c1OC	0.03	1.2
COc1ccccc1C(=O)NNC(=O)C(=O)Nc1ccc(C)c(Cl)c1	28*	0.28*
CC1(C)CC(=O)C(Sc2ccccc2)=C(O)C1	0.11	1
COc1ccc(/C=C/CN2CCN(Cc3cccc(OC)c3)C(CCO)C2)cc1 (stereo unspecified)	1.8	-0.15

Four records drawn at random from the list so far:
SMILES	KCNQ2 enhance	KCNQ2 enhance baseline
Cc1nc2ccccc2c2oc(C(=O)NCCCN3CCC(C)CC3)cc12	0.3	0.79
O=C(Nc1ncccc1Cl)c1ccccc1F	1.8	1.3
COc1ccccc1C(=O)NNC(=O)C(=O)Nc1ccc(C)c(Cl)c1	28*	0.28*
COc1cc(CCC(=O)N2CCN(c3ccc(N4CCOCC4)nn3)CC2)cc(OC)c1OC	0.03	1.2

Additional records
SMILES	KCNQ2 enhance	KCNQ2 enhance baseline
O=C(NC(=S)NCCO)c1cn(-c2ccccc2)nc1-c1ccccc1	0.91	0.68
N#CC1(c2ccc(NC(=O)c3ccccc3)cc2)CCCC1	0.77	0.48
CCOc1ccc(-n2cnnn2)cc1S(=O)(=O)NCCc1ccc(OC)c(OC)c1	0.64	0.08
CCN1CCN(CCCN(Cc2ccco2)C(=S)Nc2cc(Cl)ccc2C)CC1	0.12	2.4
COc1ccc(CCNC(=O)C2CC3Cn4c(nc5cc(Cl)c(Cl)cc54)C3N2C)cc1 (stereo unspecified)	2.5	0.02
CCCCCCc1cc2cc(S(=O)(=O)c3ccc(F)cc3)c(=O)oc2cc1O	1.6	-1.7
Cc1ccc(S(=O)(=O)Nc2ccc(O)c3ncccc23)cc1	1.5	-2.2
